Assay outcomes: PubChem, National Center for Advancing Translational Sciences (NCATS)
miR-21 FLuc = qHTS Assay for Modulators of miRNAs and/orActivators of miR-21; HeLa miR-21 FLuc reporter, luciferase, 48 h; Potency, µM (series often up to 38.3 µM), for the others: top-dose reporter change, positive = more light; 340,000 tested, under 10 active; active = well fitted rising curve with a large enough effect; inconclusive = small, poorly fitted or top-dose-only effect; inactive = no such curve, though single readings can be large or run the other way;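 also: % of control where 0% means no effect; miR-21 action dims this reporter so a rising signal means less miR-21 action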
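Luminescence from a firefly luciferase reporter carrying a miR-21 binding site downstream, stably expressed under a CMV promoter in HeLa cells that make miR-21 endogenously, reports miRNA modulation after 48 h compound exposure up to approximately 40uM final.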
The depositor's hits bear a star; ? = inconclusive. The list is partial (hit frequency here may not be typical).

Start of the data: the first five entries, to show the layout:
miR-21 FLuc	SMILES
5%	CCN1CCN(C(=O)c2ccc3c(c2)N(Cc2cc(C)ccc2C)C(=O)c2ccccc2S3=O)CC1 (stereo not drawn)
14%	COc1ccc(-c2ccc(=O)n(CC(=O)Nc3ccc(OC)c(OC)c3)n2)cc1
0%	Cc1ccc(Cl)cc1NC(=O)C1CCN(c2nnc(C)c3c(C)n(-c4ccccc4)nc23)CC1
-22%	CCOc1ccc(NC(=O)Cc2c[nH]c3ccccc23)cc1
-1%	COc1ccccc1NC(=O)CCn1cnc2ccccc2c1=O

Main list, from the first entry:
miR-21 FLuc	SMILES
5%	CCN1CCN(C(=O)c2ccc3c(c2)N(Cc2cc(C)ccc2C)C(=O)c2ccccc2S3=O)CC1 (stereo not drawn)
14%	COc1ccc(-c2ccc(=O)n(CC(=O)Nc3ccc(OC)c(OC)c3)n2)cc1
0%	Cc1ccc(Cl)cc1NC(=O)C1CCN(c2nnc(C)c3c(C)n(-c4ccccc4)nc23)CC1
-22%	CCOc1ccc(NC(=O)Cc2c[nH]c3ccccc23)cc1
-1%	COc1ccccc1NC(=O)CCn1cnc2ccccc2c1=O
-1%	O=C(O)c1cc(NC2(c3ccccc3)C(=O)c3ccccc3C2=O)ccc1Cl
?	Cc1cccc(C(=O)Nc2nc(-c3nnn(-c4cc(C)ccc4C)c3C)ns2)c1
-10%	O=C(O)CCn1cnc2onc(-c3ccccc3Cl)c2c1=O
8%	COc1cc2c(=O)c(S(=O)(=O)c3ccc(F)cc3)cn(Cc3ccccc3C)c2cc1OC
-4%	Cc1ccccc1Nc1c(-c2ccc(O)cc2)nc2c(C)cccn12
10%	COc1cccc(N2CCN(C(=O)C3CCN(S(=O)(=O)c4c(C)noc4/C=C/c4ccccc4F)CC3)CC2)c1
6%	CCOc1ccc(NC(=O)Cn2c(=O)n(CCCS(=O)(=O)C3CCCCC3)c(=O)c3ccccc32)cc1
-20%	COc1cccc(Cn2c(NCc3ccc(C)cc3)nc3c2c(=O)n(C)c(=O)n3C)c1
-1%	O=C(CC1C(=O)OCCN1Cc1ccccc1)Nc1cccc(Cl)c1 (stereo not drawn)
-1%	Cc1cc(NC(=O)c2cc(-c3cccc(Cl)c3)on2)nn1Cc1ccc(Cl)cc1
9%	CCc1cccc(C)c1NC(=O)CN1C(=O)C2(SCC(=O)N2c2cc(C)cc(C)c2)c2ccccc21 (stereo not drawn)
-10%	CCC(=O)N1CCc2cc(S(=O)(=O)NC(Cc3ccccc3)C(=O)Nc3ccccc3C)ccc21 (stereo not drawn)
28%	COc1ccc(Cl)cc1N(C)C(=O)c1cc2c(=O)oc3ccc(C)cc3c2s1
-10%	COc1ccc(-n2nc(C(=O)N3CCCC(C)C3)c3c4ccccc4n(C)c3c2=O)cc1 (stereo not drawn)
1%	CCCOc1ccc(-c2nc3ccc(Br)cc3c(=O)o2)cc1
1%	COc1ccc(CNC(=O)c2oc3c(c2C)-c2nn(Cc4ccccc4Cl)cc2CC3)cc1
-1%	Cc1cccc(Cn2c(=O)n(CCCCC(=O)NCc3ccc4c(c3)OCO4)c(=O)c3ccccc32)c1
?	CCOc1ccc(OCC)c(NC(=O)CN(C)S(=O)(=O)c2ccc3c(c2)CCCC(=O)N3)c1
-1%	CCOC(=O)c1ccc(NC(=O)CSc2nc(-c3ccc(OC)cc3)cc(C(F)(F)F)c2C#N)cc1
16%	COc1ccccc1N1CCN(C(=O)c2ccc(Nc3nc4ccccc4n4nnnc34)cc2)CC1
-1%	CCOCCc1nn2c(=O)cc(COC(=O)c3cccc(C)c3)nc2s1
-1%	CCOC(=O)CSc1nc2cc3c(cc2c(=O)n1CCCCCC(=O)NCc1ccc2c(c1)OCO2)OCO3
0%	COc1cc(NC(=O)Cn2c(=O)n(-c3ccccc3)c(=O)c3c4c(sc32)CCCC4)cc(OC)c1
6%	CCOc1ccccc1NC(=O)Cc1coc2c(C)c(C)ccc12
-6%	O=C(COc1ccccc1F)OCc1cc(=O)n2nc(C3CCCCC3)sc2n1
5%	Cc1ccccc1CN1CCCN(CC(=O)Nc2ccc(F)cc2)S1(=O)=O
-11%	COC(=O)c1cc2oc3ccccc3c2n1CC(=O)Nc1ccc(OC)c(OC)c1
-24%	Cc1ccc2nc(NC(=O)CSc3[nH]c(=O)ncc3C)sc2c1
5%	COc1cccc(NS(=O)(=O)c2ccc3[nH]cc(C(=O)N(C)C4CCCCC4)c(=O)c3c2)c1
?	Cc1ccccc1NC(=O)CSc1nc2ccc(NC(=O)c3cccs3)cc2s1
27%	Cc1cccc(NC(=O)Cn2cc(C(=O)C3CCCCC3)c3ccccc32)c1C
0%	O=C(Cn1ncc2c3ccccc3n(Cc3ccc(F)cc3)c2c1=O)NCCCN1CCCCC1
-3%	Cc1ccccc1-c1noc(-c2ccc(N3CCN(C)CC3)c([N+](=O)[O-])c2)n1
-17%	COc1ccc(-c2cn3c(n2)sc2cc(C(=O)NC(C)C45CC6CC(CC(C6)C4)C5)ccc23)cc1 (stereo not drawn)
20%	Cc1ccc(-n2ncc(C(=O)NCc3ccccc3)c2C2CCN(C(=O)OC(C)(C)C)CC2)cc1
1%	COc1cc2c(-c3ccc(C)cc3)nc3c(c(C)nn3-c3ccccc3)c2cc1OC
-47%	CC(C)c1ccc(NC(=O)C2(C)Cc3ccccc3C(=O)O2)cc1 (stereo not drawn)
-5%	CCCn1c(SCC(O)c2ccccc2)nc2ccccc21 (stereo not drawn)
-12%	COc1cccc(CN2C(=O)c3ccccc3Sc3ccc(C(=O)NCc4ccccc4)cc32)c1
6%	Cc1ccc(C)c(NC(=O)C2CCCN2S(=O)(=O)c2ccc3c(c2)CCCC(=O)N3)c1 (stereo not drawn)
14%	COc1ccc(C(=O)/C=C/c2cn(CC(O)CN3CCCCCC3)c3ccccc23)cc1OC (stereo not drawn)
3%	CN(C(=O)CSc1nc2ccccc2n1CC(=O)NCc1ccc(F)cc1)c1ccc(F)cc1
8%	COC(=O)CNC(c1ccccc1)c1cc(Br)ccc1NC(=O)c1ccccc1 (stereo not drawn)
28%	CN(C)c1ccc(CNC(=O)c2ccc(NC(=O)N3CCCCc4ccccc43)cc2)cc1
-16%	CC1CCCc2sc3nc(SCC(=O)c4ccc(Br)cc4)nc(N)c3c21 (stereo not drawn)

Additional entries.
miR-21 FLuc	SMILES
1%	CC(=O)c1cccc(NC(=O)C2CCCN(c3nnc(-n4cccc4)s3)C2)c1 (stereo not drawn)
5%	CCc1ccccc1NC(=O)CN(c1ccccc1OC)S(=O)(=O)c1ccc(C)cc1
-4%	O=C(CCc1ccccc1)N(Cc1cccnc1)c1nc2c(F)cc(F)cc2s1
-4%	CCC(NC(=O)Nc1cccc(C)c1)c1c(-n2cccc2)sc2c1CCN(C)C2 (stereo not drawn)
-1%	O=C(OCC1CCCO1)c1ccc2c(c1)N(Cc1ccccc1)C(=O)c1ccccc1S2(=O)=O (stereo not drawn)
-18%	CCCCNC(=O)c1ccc2c(=O)n(Cc3ccc(OC)cc3)c(=O)[nH]c2c1
8%	COc1ccc(C(=O)Nc2nc3nc(C)c(Cl)c(=O)n3[nH]2)cc1
-3%	Cc1ccc(/C=C/c2onc(C)c2S(=O)(=O)N2CCC(C(=O)NCc3ccc(N(C)C)cc3)CC2)cc1
-4%	O=C(Nc1cc2c(cc1C(=O)c1ccccc1)OCCO2)c1ccc(Br)cc1
6%	COCCCNS(=O)(=O)c1ccc(N2CCCCS2(=O)=O)cc1

A second format for 3 compounds above:
COc1ccc(C(=O)Nc2nc3nc(C)c(Cl)c(=O)n3[nH]2)cc1
  miR-21 FLuc: 8%
Cc1ccc(/C=C/c2onc(C)c2S(=O)(=O)N2CCC(C(=O)NCc3ccc(N(C)C)cc3)CC2)cc1
  miR-21 FLuc: -3%
O=C(Nc1cc2c(cc1C(=O)c1ccccc1)OCCO2)c1ccc(Br)cc1
  miR-21 FLuc: -4%

The list continues:
miR-21 FLuc	SMILES
-37%	Cc1c(C(=O)NCc2ccc(Cl)cc2)sc2nc3n(c(=O)c12)CCCC3
-4%	COc1cccc(NC(=O)CSC2=Nc3ccccc3C3=NC(CCC(=O)NC4CCCCC4)C(=O)N23)c1 (stereo not drawn)
-1%	Cc1ccc(CN(C(=O)COc2ccc(Cl)cc2C)C2CCS(=O)(=O)C2)o1 (stereo not drawn)
3%	Oc1c(C(c2ccccc2F)N2CCC3(CC2)OCCO3)sc2nc(-c3ccco3)nn12 (stereo not drawn)
6%	Cc1ccc(Cl)cc1NC(=O)Cn1cc(S(=O)(=O)Cc2ccccc2Cl)c2ccccc21
-6%	Cc1ccc(NC(=O)CSc2nc(=O)n(Cc3ccco3)c3c2CCC3)cc1F
7%	COc1cccc(NC(=O)c2ccc3nc(Cc4ccccc4)oc3c2)c1
-16%	CC(C)c1cc(C(=O)NC(C)c2ccccc2)no1 (stereo not drawn)
-4%	COc1ccc(Br)cc1CNC(=O)CCSCc1ccc(Cl)cc1
2%	CCOC(=O)c1c(NC(=O)CCCOc2ccc(Cl)cc2)sc2c1CCC2

A second format for some results above:
| SMILES | miR-21 FLuc |
| --- | --- |
| Cc1ccc(NC(=O)CSc2nc(=O)n(Cc3ccco3)c3c2CCC3)cc1F | -6% |
| COc1cccc(NC(=O)c2ccc3nc(Cc4ccccc4)oc3c2)c1 | 7% |

Additional results follow.
miR-21 FLuc	SMILES
0%	COc1cc(C2C(=O)N(C3CCCCC3)CC(=O)N2C2CCCCC2)ccc1OC(C)C (stereo not drawn)
-18%	COc1ccc(CCC(=O)NCCc2csc(-c3ccc(F)cc3)n2)cc1
-13%	COc1cccc(C(=O)Nc2ccc3nc(SCC(=O)N4CCc5ccccc54)sc3c2)c1
-2%	CCc1ccc(CNC(=O)Cn2nc(C)n3c(cc4cc(C)ccc43)c2=O)cc1
0%	CCCc1nn2c(=O)cc(COC(=O)c3ccc(NC(=O)c4cccs4)cc3)nc2s1
20%	COc1ccc(-c2cc(C)no2)cc1S(=O)(=O)Nc1c(C)cc(C)cc1C
-6%	Cc1ccccc1C(=O)NCCc1sc(-c2ccc(Cl)cc2)nc1C
16%	Fc1ccc(C(c2nnc(-c3ccccc3)o2)N2CCN(c3cccc(Cl)c3)CC2)cc1 (stereo not drawn)
9%	COc1ccc(CCNS(=O)(=O)c2ccc(N3CCCCS3(=O)=O)cc2)cc1OC
25%	CCOc1ccc(CCNC(=O)C2CCCN(c3nnc(C)c4c(C)n(-c5ccccc5)nc34)C2)cc1 (stereo not drawn)
0%	CCc1cccc(C)c1NC(=O)Cn1cc2c(n1)CCCC2
?	CC(C)CN(CC(C)C)c1nnc(NC(=O)Nc2cccc(C(F)(F)F)c2)s1
-11%	COc1cc(NC(=O)CCN2CCN(c3ccccc3)CC2)cc(OC)c1
-2%	CCc1ccc(-c2nn(-c3ccc(OC)cc3)c3c2cnc2ccc(OC)cc23)cc1
21%	Cc1ccc(C)c(CN2C(=O)c3ccccc3S(=O)(=O)c3ccc(C(=O)N(C)C4CCCCC4)cc32)c1
-1%	CN(C)c1ccc(C(CNS(=O)(=O)c2ccc(F)cc2F)N2CCOCC2)cc1 (stereo not drawn)
-3%	COc1ccc(-n2nc(C(=O)N(C)c3cc(Cl)ccc3OC)c3c4ccccc4n(C)c3c2=O)cc1
-2%	CCOC(=O)N1CCN(C(=O)CN(c2ccccc2F)S(=O)(=O)c2ccc(C)cc2)CC1
1%	CC(C)C(=O)c1cc2c(cc1NC(=O)c1ccccc1F)OCCO2
-1%	O=S(=O)(c1ccc(-c2cc(C(F)(F)F)on2)s1)N1CCN(c2ccccc2)CC1
20%	CSc1ncc(Cl)c(C(=O)N(Cc2ccc(N(C)C)cc2)Cc2ccco2)n1
20%	O=C(Nc1ccc2oc(-c3cccnc3)nc2c1)c1ccc(-c2cccc(OC(F)(F)F)c2)o1
22%	COc1ccc(Cc2nc3ccc(C(=O)NCCc4ccc(OC)c(OC)c4)cc3o2)cc1
0%	Cc1nc2nc(NC(=O)C(C)C)[nH]n2c(=O)c1Cc1ccccc1
1%	Cc1cccc(NC(=O)CSc2nc(=O)n(Cc3ccco3)c3c2CCC3)c1C
-1%	O=C(NC1CC(=O)N(c2cccc(F)c2)C1)c1ccc2c(c1)OCO2 (stereo not drawn)
15%	COc1ccc(NC(=O)C(c2ccc(C)cc2)N(C)C(=O)/C=C\c2ccc3c(c2)OCO3)cc1 (stereo not drawn)
-4%	CCOc1ccc(/C=C/c2nc(C#N)c(Nc3ccc(OCC)cc3)o2)cc1
-15%	CCc1ccc(C(=O)c2cn(CC(=O)Nc3cccc(OC)c3)c3ccc(OC)cc3c2=O)cc1
10%	CCCn1c(CCC(=O)Nc2cccc(C)c2C)nc2cccnc21
1%	CCCCC(=O)N1c2ccccc2C(C)(c2ccccc2)CC1(C)C (stereo not drawn)
-1%	Cc1ccc(OCc2nc3ccccc3n2Cc2ccccc2Cl)cc1
-4%	Cc1ccc(CN2CCc3nc(N4CCN(c5ccccc5F)CC4)ncc3C2)s1
-17%	Cc1c(-c2ccccc2)c(=O)oc2c(CN3CCCC3)c(O)ccc12
-1%	COc1cc(Cl)c(C)cc1NC(=O)Cn1c(C)c2cnn(-c3ccccc3)c(=O)c2c1C
-2%	CCc1nnc2c(Nc3ccccc3Br)nc3ccccc3n12
